TRPML1 ag: human mucolipin-1 channel agonism; Q9GZU1; TRPML1-expressing cells, Ca2+ dye fluorescence, FDSS; host cell line not named in the record; reference of the full effect not given here; activation, % (no concentration beside the values); 410,000 compounds, 0.12% hits; in the data active = activation above about 50%; inconclusive = about 30% to 50%; inactive = below about 30%; further: 0% is about no effect; the text of the record puts the active cut at 80%
Target sequence (Q9GZU1 whole entry, looked up): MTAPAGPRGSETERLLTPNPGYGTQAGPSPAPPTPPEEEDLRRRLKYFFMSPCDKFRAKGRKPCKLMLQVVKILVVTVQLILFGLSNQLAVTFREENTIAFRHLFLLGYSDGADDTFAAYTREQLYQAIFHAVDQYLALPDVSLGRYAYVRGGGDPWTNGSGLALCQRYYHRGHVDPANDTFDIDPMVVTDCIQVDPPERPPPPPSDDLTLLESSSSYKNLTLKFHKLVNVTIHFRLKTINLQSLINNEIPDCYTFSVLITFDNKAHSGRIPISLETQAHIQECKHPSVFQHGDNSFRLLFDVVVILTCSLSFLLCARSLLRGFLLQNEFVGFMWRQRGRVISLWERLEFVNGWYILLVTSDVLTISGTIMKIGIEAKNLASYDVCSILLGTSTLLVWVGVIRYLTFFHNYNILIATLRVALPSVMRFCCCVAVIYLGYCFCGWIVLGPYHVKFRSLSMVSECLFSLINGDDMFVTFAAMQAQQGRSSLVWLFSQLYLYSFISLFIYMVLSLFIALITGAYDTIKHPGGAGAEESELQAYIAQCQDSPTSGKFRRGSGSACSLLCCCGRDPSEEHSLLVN
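In this qHTS format, compounds were pin-transferred onto Ca8-dye-loaded TRPML1-DL cells induced with Tet overnight, and intracellular Ca2+ fluorescence was recorded kinetically for 110 s after a 10 s baseline. A subsequent 4uM final 54-4 (EC80) addition followed by a second 110 s read served as the antagonist phase.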
Menin-MLL FL inh: inhibitors of human menin-MLL interaction, wild-type MLL peptide; 290,000 tested, under 10 active; AID 1766; Fluorescence polarization, fluorescein-MLL peptide displacement from menin; FP activity change, % at 61.4 µM; inconclusive = falling polarisation curve, or a change in total fluorescence; inactive = total fluorescence flat and polarisation flat or rising; no compound was filed as active; the % refers to the polarisation; negative = inhibition;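 further: % of control where 0% means no effect; inhibitors lower the polarisation; unlabelled MLL peptide was the positive control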
Sfp inh: Sfp phosphopantetheinyl transferase inhibition | Biochemical Sfp PPTase activity, qHTS | Q9F4F7 | Potency, µM, for inactives: max response, negative = inhibition, actives largely listed as inhibitors | 310,000 compounds, 3.5% hits; active means well fitted inhibition curve with a large enough effect; inconclusive means small, poorly fitted or top-dose-only effect, or another doubt; inactive means no such curve, though single readings can be large or run the other way;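 further: the enzyme is Sfp with the accession as filed and its product quenches rhodamine fluorescence; potency means the concentration at half of the fitted maximal effect; 0% = enzyme reaction without inhibitor and -100% = no enzyme wells; top concentration of the series not given in the record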
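Fluorescence-quenching assay with 15 nM Sfp, 5 uM rhodamine-CoA and 12.5 uM BHQ-2-labelled ybbR peptide in pH 7.6 Hepes/MgCl2 buffer. Enzyme was pre-incubated with compound for 15 min at room temperature. Rate was taken from the 30-min fluorescence change (525/598 nm).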
TRPV1 potentiator: potentiators of human vanilloid receptor 1 (TRPV1); TRPV1-expressing cells, Fluo-8 calcium influx, capsaicin EC20 potentiation; host cell line not named in the record; control for the full effect not named in the record; potentiation, % at 8.33 µM; 320,000 compounds, 0.02% hits; active means potentiation above 80%; inconclusive means 30% to 80%; inactive means below 30%; further: 0% is about no effect
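Fluo-8 calcium influx in TRPV1-expressing cells, kinetic read (ex 480/em 520 nm). Compound added and read 3 min for agonist activity, followed by capsaicin at EC20 final and 2 min further read for enhancement.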
PINK1 modulator: PINK1 expression modulation; 410,000 compounds, 0.2% hits; PINK1 immunofluorescence, high-content cytometry, 24 h; AID 624263; Potency, µM (series often up to 76.6 µM), for the others: at the top dose activation (PINK1 increase), hits mostly activators; active = well fitted activation curve with a large enough effect; inconclusive = small, poorly fitted or top-dose-only effect; inactive = flat fitted curve, though single readings scatter; cell line not stated here;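 further: potency means the concentration at half of the fitted maximal effect; % of control where 0% means no effect; nearly all actives have a fitted effect of over 65% in size; a mitochondrial uncoupler was the plate control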
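Stable cell line treated 24 h with compounds at 5 concentrations (CCCP controls), then fixed and immunostained for PINK1 plus nuclear and cell stains; PINK1 immunofluorescence quantified by laser-scanning microplate cytometry.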
TRPML1 inh: human mucolipin-1 channel inhibition. Q9GZU1. 390,000 compounds, 0.02% hits. activity change, negative = inhibition, % (concentration not given with the values). TRPML1-inducible cells, Ca2+ dye fluorescence, FDSS; hits give low values; inhibition of EC80 agonist-evoked calcium signal; in the data active means activity change below about -50%; inconclusive means about -30% to -50%; inactive means above about -30%;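 further: stimulus is agonist 54-4 at its EC80 concentration; on the % scale 0 is the no-effect control and ±100 the full control effect; the text of the record puts the active cut at -80%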
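Tet-induced TRPML1-DL cells loaded with Ca8 no-wash calcium dye were read kinetically on FDSS. Compound addition was followed by EC80 agonist 54-4 (4 uM final); inhibition was read over 110 s.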
ClpP mod: qHTS Assay for Activators of ClpP | ATP-dependent Clp protease proteolytic subunit (Bacillus subtilis (strain 168)), P80244 | purified B. subtilis ClpP, FRET peptide cleavage, 20 min | Potency, µM (doses to about 57.5 µM), inactives show top-dose activity change, negative = active | 340,000 compounds, 1.9% hits; active = well fitted falling curve with a large enough effect; inconclusive = small, poorly fitted or top-dose-only effect; inactive = no such curve, though single readings can be large or run the other way; further: potency means the concentration at half of the fitted maximal effect; the source files actives as falling curves though it sought activators and does not explain the sign; nearly all actives have a fitted effect of over 65% in size; many hits overshoot -100%
Target sequence (P80244 whole entry, looked up): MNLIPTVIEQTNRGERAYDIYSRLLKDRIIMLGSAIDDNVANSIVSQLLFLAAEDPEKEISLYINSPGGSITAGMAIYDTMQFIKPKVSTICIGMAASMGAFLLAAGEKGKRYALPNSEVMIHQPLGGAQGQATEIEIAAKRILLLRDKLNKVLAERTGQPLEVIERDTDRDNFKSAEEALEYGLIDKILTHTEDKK
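FRET quenching reversal measured ClpP activation: 10 microg/mL B. subtilis ClpP at pH 8 with the FRET-FV decapeptide, read at 430 nm after 320 nm excitation. The 20-min minus 0-min signal was scaled between DMSO/no-enzyme wells and ADEP (5.8 microM final).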
Numbers without * were called inactive; u = inconclusive; x = no result given; & = joins results of further samples; [ ] = remark or other dose.

SMILES | TRPML1 ag | Menin-MLL FL inh | Sfp inh | TRPV1 potentiator | PINK1 modulator | TRPML1 inh | ClpP mod
Cc1ccc(Nc2nnc(SCC(=O)Nc3ncc(S(=O)(=O)c4ccc([N+](=O)[O-])cc4)s3)s2)cc1 | 0.1 | 3.9 | -16.0% | 4.4 | u | -17.6 | 0.5%
O=c1c(O)c(-c2ccccc2)oc2cc(O)ccc12 | x | 6.9 | 13.1% | x | -0.1% | x | x
CCOC(=O)c1cnc2c(c(C)nn2C)c1Oc1ccc(Cl)cc1 | 0.2 | -0.6 | -5.0% | -29.3 | 2.7%[38.3 µM] | -10.2 | -7.7%
COC(=O)c1ccc(Cn2nc(-c3ccc(C)c(C)c3)ccc2=O)cc1 | 2.0&0.4 | -9.1 | -26.5% | -12.9 | -2.0%&2.5% | 11.5&-14.6 | -3.1%
CCOC(=O)Cc1csc(SCC(=O)NC2CCCC(C)C2C)n1 (configuration not stated) | 0.8 | -0.3 | 7.1% | -20.4 | 0.7% | 27.3 | 0.2%
O=C(Nc1ccc(Oc2cccnc2)cc1)C1CCN(Cc2ccccc2)CC1 | 0.3 | x | 5.3% | -3.3 | 1.4% | 0.0 | 0.6%
CCCC1(C(=O)OCC)NC(c2ccc(O)cc2)C2C(=O)N(c3ccc4c(c3)OCCO4)C(=O)C21 (configuration not stated) | 0.0 | 1.4 | 18.6% | -8.9 | x | -6.9 | -0.5%
CC1(C(=O)O)CCCN1C(=O)c1cccc(OC(F)(F)F)c1 (configuration not stated) | -0.3 | x | x | x | 2.0% | x | -0.3%
O=C(COC(=O)CSc1ccc([N+](=O)[O-])cc1)NCCc1ccccc1 | 0.8 | x | x | -2.3 | 0.4% | -15.7 | 2.2%
COc1ccc(CNC(=O)C(C)N2CCN(S(=O)(=O)c3ccccc3F)CC2)cc1 (configuration not stated) | 4.2 | x | x | 10.3 | 0.9% | 0.1 | 1.6%
Cc1cc(C)c(S(=O)(=O)c2c(C)cccc2C)c(OCC(C)C)n1 | -0.9 | 0.3 | -6.9% | 7.1 | 2.8% | -5.6 | 1.8%
Cc1ccc(OCCN2C(=O)c3ccccc3C2=O)c(C)c1 | 0.1 | -7.6 | 1.9% | 27.7 | 2.7% | 4.6 | -0.2%
O=C(CSc1nccn1Cc1ccccc1)NCc1ccccc1Cl | 0.5 | x | x | x | 0.2% | -2.0 | 1.4%
Cc1cc(Br)ccc1NC(=S)NC1CCCC1 | 0.0 | -1.5 | 0.7% | -18.0 | 0.0% | -2.7 | 0.4%
COc1ccccc1CN1CC(C(=O)NCCN(C)CCc2ccccc2)CCC1=O (configuration not stated) | 0.3 | x | -1.3% | 7.4 | -1.1% | -1.1 | -5.7%
Cc1ccc2c(c1)N(CCC(=O)NCc1ccccc1Cl)C(=O)CO2 | -0.2 | x | x | x | 1.3% | 7.3 | -1.8%
CCn1c(=O)cc(OCC(=O)N(C)c2ccc(OC)cc2)c2ccccc21 | -0.7 | x | x | x | 0.9% | 4.1 | -6.8%
O=C(c1ccc(S(=O)(=O)Nc2ccccc2)cc1)N1CCCC1 | -0.4 | x | x | -7.6 | 3.2% | -19.5 | x
CC(C)C(=O)Nc1c(C(=O)N2CCN(c3ccccc3F)CC2)oc2ccccc12 | 3.5 | x | x | x | -3.9% | -25.8 | -2.3%
CCOC(=O)C1CCCCN1Cc1ccc(-c2ccccc2)cc1 (configuration not stated) | 1.7 | 1.4 | -23.0% | -7.9 | u | 19.8 | x

3 compounds out of the list above, arranged by the value under TRPML1 inh, descending.
| SMILES | TRPML1 inh |
| --- | --- |
| CCOC(=O)C1CCCCN1Cc1ccc(-c2ccccc2)cc1 (configuration not stated) | 19.8 |
| Cc1cc(Br)ccc1NC(=S)NC1CCCC1 | -2.7 |
| CCOC(=O)c1cnc2c(c(C)nn2C)c1Oc1ccc(Cl)cc1 | -10.2 |

Next entries:
SMILES | TRPML1 ag | Menin-MLL FL inh | Sfp inh | TRPV1 potentiator | PINK1 modulator | TRPML1 inh | ClpP mod
O=[N+]([O-])c1cc(Br)cc(/C=N/n2cnnc2)c1O | 1.8 | 24.8 | 18.4% | 10.9 | 0.7% | 17.9 | x
COc1ccccc1CCn1cnc(Cc2cccc(F)c2)c1C(C)C | 2.8 | x | x | x | u | x | -1.2%
COCCCCOc1cc2nc(N3CCCN(C)CC3)nc(NC3CCN(C)CC3)c2cc1OC | -0.5 | x | x | x | -0.3% | x | 4.6%
CCOC(=O)c1sc(/N=C/N(C)C)c(C(=O)OCC)c1C | 0.6 | -0.3 | 8.7% | 2.0 | 3.4%[38.3 µM] | 17.1 | -2.2%
NC(N)=NN=C1c2ccccc2-c2ccccc21 | -0.7 | 1.7 | -19.3% | -8.3 | 1.0% | 7.3 | x
CCc1cccc(NC(=O)C2CCC(CNS(=O)(=O)c3ccc4c(c3)CCCC(=O)N4)CC2)c1 (configuration not stated) | -1.1 | x | x | x | 0.1% | 16.1 | 0.9%
Cc1cc(-c2ccc(C(C)C)c(S(=O)(=O)N3CCOc4ccccc43)c2)on1 | 138.7* | 0.7 | 1.4% | -5.3 | 7.8% | -28.0 | -2.3%
O=C(CCN1C(=O)c2ccccc2C1=O)C1=NN[C@@H]2C(=O)N(c3cccc(Cl)c3)C(=O)[C@H]12 | -0.2 | 4.4 | 10.6% | -0.2 | 0.7% | -0.1 | 0.7%
Cc1ccc(F)cc1NC(=O)N1c2ccccc2NC(=O)CC1C (configuration not stated) | -0.1 | -0.4 | 18.1% | 1.9 | -0.6% | 2.0 | -3.3%
COc1ccc(CC(=O)Nc2ccc(-c3noc(-c4ccc(Cl)cc4)n3)cc2)cc1 | 0.8 | -3.6 | -0.3% | 1.2 | 22.9%[38.3 µM] | -9.7 | 0.5%
Cn1c(NC(=O)C2CCCC2)cc(=O)n(C)c1=O | -0.7 | 0.8 | 3.2% | x | 5.2% | -0.4 | -1.1%
O=c1c2cc(Br)ccc2nc(-c2ccc(Cl)cc2)n1O | 9.0 | -1.3 | -22.7% | 6.6 | 2.2% | -12.9 | x
COc1ccc(C(=O)COc2ccc3ccc(=O)oc3c2)cc1 | 0.2 | 2.1 | -4.5% | x | 4.8% | -5.7 | -27.1%
O=C(CNC(=O)c1ccc(Br)o1)NNC(=O)c1n[nH]c(=O)c2ccccc12 | -0.1 | x | x | -10.0 | 1.4% | -1.8 | -1.3%
N#Cc1c(NC(=O)CSc2ncccn2)oc(-c2ccccc2)c1-c1ccccc1 | 1.7 | x | x | x | -0.9% | -14.8 | -1.9%
O=C(CNC(=O)c1ccc(Cl)cc1Cl)OCc1nc2ccccc2s1 | 2.4 | -0.7 | 4.0% | 4.6 | -0.3% | -19.3 | 0.2%
C[C@@H](O)C1NC(=O)[C@H](CCCCN)NC(=O)c2cc([N+](=O)[O-])cc(F)c2NCCCC[C@@H](C(N)=O)NC1=O (some centres not stated) | -0.1 | 3.3 | -0.8% | 3.8 | -0.4% | 34.5 | 0.6%
Cn1cc(SCC(=O)O)c2ccccc21 | 0.0 | -0.2 | 10.7% | -6.0 | x | 1.5 | u
CC1(C)COCN1C(=O)c1ccc(Cl)c(Cl)c1 | 1.7 | -11.2 | 14.7% | 0.0 | -0.1% | -14.7 | x
CCC(=O)n1nc(-c2cccnc2)nc1NCc1ccc(F)cc1 | -1.1&-0.1 | -0.1 | 8.8% | 7.1 | 1.2%&0.8% | -1.6&-6.9 | -1.5%&-1.2%
NC(=O)CC(NC(=O)c1cccc(Br)c1)c1ccc(NCC2CC2)c([N+](=O)[O-])c1 (configuration not stated) | -0.6 | -23.2 | 14.3% | -11.5 | 0.9% | 6.6 | 0.2%
Cc1cc(C)c2c(c1)cc(C)c1nnc(SCC(=O)Nc3ccccc3N3CCOCC3)n12 | 0.9 | 0.0 | -0.5% | -0.9 | 3.4% | -4.2 | -11.9%
O=C(O)CC(Cn1[nH]nnc1=S)c1ccccc1 (configuration not stated) | -0.9 | 0.4 | 39.8µM* | -3.6 | 1.9% | 3.7 | 1.0%
CC(C)(O)C#Cc1ccc(C(=O)NC(CCCNC(N)=O)C(=O)O)s1 (configuration not stated) | -0.5 | -1.0 | -0.5% | -4.6 | 1.4% | 2.4 | x
CCOC(=O)CSc1nc2ccc(NC(=O)c3ccc(F)cc3)cc2s1 | 1.2 | x | x | x | 2.2% | -7.0 | 4.1%
Cc1ccc(NC(=S)NCCC2=CCCCC2)cc1 | 1.2 | -2.7 | -1.1% | -21.0 | 4.5% | 8.9 | x
C=C(C)Cn1c(-c2ccc(OC)cc2)nc2ccccc21 | -0.2 | 2.6 | u | 9.0 | 2.0% | -13.5 | u
Cc1cnc(NC(=O)c2cc3c(s2)CCCC3)s1 | -0.4 | 1.7 | -4.3% | -11.6 | 11.1% | -0.4 | -2.5%
CC(NC(=O)c1cccs1)C(c1cccs1)N1CCN(c2ccccc2)CC1 (configuration not stated) | 0.9 | -0.2 | 4.8% | 4.1 | -0.8%[38.3 µM] | u | 0.6%
O=C(Cc1ccc([N+](=O)[O-])cc1)NCc1ccc2c(c1)OCO2 | 0.6 | 4.4 | 7.3% | -23.1 | -0.2% | 7.0 | 0.8%
O=C(CCCN1C(=O)c2ccccc2C1=O)N1CCCCC1 | 0.0 | 0.7 | 13.1% | -0.3 | 1.2% | 10.4 | -1.3%
CC(C)(C)c1ccc(CN2N=C(/C=C/c3ccccc3)CCC2=O)cc1 | -0.2 | -0.5 | 14.1% | 6.4 | 9.4% | 5.2 | x
O=[N+]([O-])c1cccc(CN2C(COCc3ccccc3)CCC=CS2(=O)=O)c1 (configuration not stated) | 1.2 | 2.5 | 11.1% | x | x | 19.5 | x
CSc1nsc(SCc2cnc(C)nc2N)n1 | 0.2 | 1.9 | 12.7% | -4.5 | -4.1%[38.3 µM] | 0.5 | 0.1%
C[C@@H]1CN([C@H](C)CO)C(=O)c2cc(Br)cnc2O[C@@H]1CN(C)C(=O)c1cccc(F)c1 | -0.2 | x | x | x | -1.3% | -0.7 | 0.4%
Cc1ccc2c(C)c(C(=O)N(Cc3cccs3)C3CCS(=O)(=O)C3)oc2c1 (configuration not stated) | 0.2 | 1.6 | -8.9% | 2.1 | -1.6% | 1.1 | -3.4%

High-throughput results deposited in PubChem BioAssay by National Center for Advancing Translational Sciences (NCATS).
